Screens deposited in PubChem BioAssay by several laboratories.
BJeLR lethal: BJeLR cell viability loss; inhibition, % (test concentration not listed); AID 1554; BJeLR (HRASV12) viability, CellTiter-Glo ATP luminescence, 48 h; reference of the scale not given here; 300,000 tested, 0.17% active;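 active = replicate mean above 50%; inconclusive = above 50% but judged a plate artefact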;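 note: 50 nL library stock added to about 25 µL; numbers are from one replicate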
Mtb hypoxia inh: inhibitors of hypoxia-regulated fluorescent reporter in Mycobacterium tuberculosis; M. tuberculosis hypoxia-regulated fluorescent reporter, fluorescence; fluorescence inhibition, % (test concentration not listed); 300,000 tested, 0.1% active; AID 1159583;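 active = 35 to 45% if threefold the growth effect, above 45% if 1.5-fold the growth effect; inactive = the rest, general growth blockers included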;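 note: wells of about 50 µL received 100 nL stock; 0% = vehicle wells and 100% = reference inhibitor wells; whole bacteria with a GFP reporter of the hypoxia response; strong numbers were not always called active; many hits fall short of the cut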
ugtP null kill: growth inhibition of S. aureus ugtP deletion strain | growth inhibition, % (no concentration beside the values) | S. aureus RN4220 ugtP deletion, OD600 growth, 16 h; some inactives read as strong as hits | 330,000 tested, 0.54% active;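 active = z-score under -3 and OD600 up to 0.15 on both plates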;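 note: plate controls were untreated wells for no effect and antibiotic for full effect; wells of about 80 µL received 100 nL stock; the first replicate is given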
Sa RN4220 lethal: S. aureus RN4220 growth inhibition. inhibition, % (concentration not given with the values). OD600, 16 h. 330,000 tested, 0.33% active. AID 1259311;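 active = z-score of -3 or lower and OD600 up to 0.18 on both plates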;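 note: plate controls were untreated cells for no effect and reference antibiotic for full effect; stock transfer was 100 nL into about 80 µL; one replicate is shown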
Bead autofluor: flagged as autofluorescent in microsphere protease counterscreen. compound autofluorescence counterscreen, microsphere flow cytometry; stronger effect = higher value. fluorescence intensity (concentration not given with the values). 360,000 tested, 3.1% active. AID 624483;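 active = at least 3 SD above the mean of all compounds, about 16000 in these data; inconclusive = too few beads counted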;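 note: 100 nL of 1 mM stock went into each well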
PrP 5UTR inh: inhibition of PrP 5' UTR reporter expression; cell-based PrP 5' UTR mRNA reporter, plate reader; inhibition, % (test concentration not listed); 340,000 tested, 0.35% active; AID 488862;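 active = every replicate at 50% or more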;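 note: 0 = median of the neutral control wells; tested in H4 reporter cells; numbers are from one replicate; inactives centre near -14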
Mtb hypoxia inh growth: recorded beside Mtb hypoxia inh, whose call it bears; growth inhibition, %; measured here: M. tuberculosis growth (absorbance);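 0% = vehicle and 100% = reference antibiotic; read after six days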
* marks the source's active call; other numbers are inactive results; ? = inconclusive; / = not tested or not shown.

cpd	SMILES	BJeLR lethal	Mtb hypoxia inh	Mtb hypoxia inh growth	ugtP null kill	Sa RN4220 lethal	Bead autofluor	PrP 5UTR inh
1	COc1cccc(C(CNC(=O)C(c2ccccc2)c2ccccc2)N(C)C)c1 (configuration not stated)	-7	22	7	4	0.0	3893	-17
2	O=C(NN=Cc1cccnc1)c1cccs1	/	-3	5	-5	-1.2	/	/
3	O=C(CCCNC(=O)c1ccc(Cl)cc1)Nc1ccccc1C(F)(F)F	6	6	7	10	1.6	3718	-5
4	COc1ccc(-c2nc3ccccc3c(=O)n2CCOc2ccccc2C)cc1	-4	4	4	25	5.0	2793	-7
5	CC(C)(C)C(=O)c1cnc(Nc2ccccc2Cl)s1	-2	8	3	-4	11	2982	-36
6	COc1ccc2ccc3c(c2c1)N=C[C@]1(O3)N(C)c2ccccc2C1(C)C	5	4	-3	0	-5.0	3546	-15
7	COCCn1ccc2c(OCC(=O)NCc3ccc(C)cc3)cccc2c1=O	-1	1	2	1	4.3	?	-3
8	Cc1ccc(S(=O)(=O)NC(=O)c2ccc(-c3ccc(C)c4ccccc34)o2)cc1	-3	0	-1	35	19	2976	-19
9	CC1CCCCN1CC(O)COCc1ccc(Cl)cc1 (configuration not stated)	-8	10	8	7	2.1	3755	-16
10	Cc1cccnc1CCNC(=O)C1CCC(=O)N(Cc2cccc(F)c2)C1 (configuration not stated)	-4	5	-1	7	0.7	5405	-16
11	O=C(C[n+]1ccccc1)Nc1ccccc1	-1	6	4	16	4.8	/	/
12	CCN(CC)CCNC(=O)CS(=O)Cc1nc(-c2ccc(Cl)cc2)oc1C (configuration not stated)	7	0	5	6	4.7	5894	-9
13	CCCSc1nc2sc3c(c2c(=O)[nH]1)CC(C)(CC)OC3 (configuration not stated)	-9	3	7	13	1.1	4183	-12
14	NC(=O)C1CCN(C(=S)c2ccc(-c3ccc(Br)cc3)o2)CC1	6	4	1	10	8.1	3943	-35
15	CCC(NC(=S)NC1CCCCC1)c1ccccc1 (configuration not stated)	17	/	/	/	/	?	-17
16	COc1ccc(/C=C/C(=O)Nc2cc(C(F)(F)F)ccc2Cl)cc1	-3	-11	-4	-7	0.7	5292	-3
17	Cc1cc(NC(=O)CSc2nc(CC(C)(C)C)nc3c2c(=O)n(C)c(=O)n3C)no1	-7	6	4	-6	-15	6065	6
18	CCOC(CCn1c(SCc2cccc([N+](=O)[O-])c2)nc2ccccc2c1=O)OCC	10	11	2	-5	1.4	9757	4
19	CCNC(=O)NC(=O)COC(=O)CCCSc1nc2ccccc2[nH]1	-4	-1	4	-2	3.3	3325	-8
20	Cc1ccc(S(=O)(=O)N(C)c2ccc(C(=O)NCC(c3ccco3)N(C)C)cc2)cc1 (configuration not stated)	/	7	7	3	4.6	3581	-18
21	O=C1OC(/C(=C\Nc2ccccc2)[N+](=O)[O-])c2ccccc21 (configuration not stated)	8	-2	-8	-6	2.1	?	-4
22	CC(C)NC(=O)c1onc(CSc2ccccc2F)c1C(=O)O	17	-9	-4	-3	-1.2	4065	-14
23	COc1cc(CC(=O)O)c(C(C)=O)cc1OC	10	-8	10	-6	0.0	3292	-22
24	O=C(NNC(=O)C1CCC(C(=O)NNC(=O)c2cccs2)CC1)c1cccs1 (configuration not stated)	1	14	3	-2	2.6	3264	7
25	O=C(Nc1ccc(Cl)cn1)c1ccccc1SCc1ccccc1	0	15	11	19	-0.6	3444	-9
26	O=C(NN1CC(=O)N(c2cc(Cl)cc(Cl)c2)CC1=O)c1cccs1	2	3	-10	9	3.5	/	-8
27	COCCNC(=O)c1nc2c(nnn2Cc2cc(C)ccc2C)c(=O)[nH]1	0	-7	-3	-5	3.1	7815	-27
28	CC1(C)CC2CC(C)(CN2S(=O)(=O)c2cccc(C(=O)O)c2)C1 (configuration not stated)	/	0	-3	-5	1.9	5157	-12
29	CCOc1cc(/C=C(\C#N)C(=O)Nc2ccccc2C(=O)O)ccc1OC(=O)c1ccc(C)cc1	-3	/	/	/	/	3748	-10
30	COc1ccc(C2=NN(Cc3c(F)cccc3Cl)C(=O)CC2)cc1	0	5	-4	-7	2.5	4502	-3

Arranged by length of the SMILES (descending): part of the list above.
cpd	SMILES	BJeLR lethal	Mtb hypoxia inh	Mtb hypoxia inh growth	ugtP null kill	Sa RN4220 lethal	Bead autofluor	PrP 5UTR inh
29	CCOc1cc(/C=C(\C#N)C(=O)Nc2ccccc2C(=O)O)ccc1OC(=O)c1ccc(C)cc1	-3	/	/	/	/	3748	-10
20	Cc1ccc(S(=O)(=O)N(C)c2ccc(C(=O)NCC(c3ccco3)N(C)C)cc2)cc1 (configuration not stated)	/	7	7	3	4.6	3581	-18
17	Cc1cc(NC(=O)CSc2nc(CC(C)(C)C)nc3c2c(=O)n(C)c(=O)n3C)no1	-7	6	4	-6	-15	6065	6
18	CCOC(CCn1c(SCc2cccc([N+](=O)[O-])c2)nc2ccccc2c1=O)OCC	10	11	2	-5	1.4	9757	4
24	O=C(NNC(=O)C1CCC(C(=O)NNC(=O)c2cccs2)CC1)c1cccs1 (configuration not stated)	1	14	3	-2	2.6	3264	7
28	CC1(C)CC2CC(C)(CN2S(=O)(=O)c2cccc(C(=O)O)c2)C1 (configuration not stated)	/	0	-3	-5	1.9	5157	-12
12	CCN(CC)CCNC(=O)CS(=O)Cc1nc(-c2ccc(Cl)cc2)oc1C (configuration not stated)	7	0	5	6	4.7	5894	-9
14	NC(=O)C1CCN(C(=S)c2ccc(-c3ccc(Br)cc3)o2)CC1	6	4	1	10	8.1	3943	-35
19	CCNC(=O)NC(=O)COC(=O)CCCSc1nc2ccccc2[nH]1	-4	-1	4	-2	3.3	3325	-8
13	CCCSc1nc2sc3c(c2c(=O)[nH]1)CC(C)(CC)OC3 (configuration not stated)	-9	3	7	13	1.1	4183	-12
22	CC(C)NC(=O)c1onc(CSc2ccccc2F)c1C(=O)O	17	-9	-4	-3	-1.2	4065	-14
25	O=C(Nc1ccc(Cl)cn1)c1ccccc1SCc1ccccc1	0	15	11	19	-0.6	3444	-9
23	COc1cc(CC(=O)O)c(C(C)=O)cc1OC	10	-8	10	-6	0.0	3292	-22
15	CCC(NC(=S)NC1CCCCC1)c1ccccc1 (configuration not stated)	17	/	/	/	/	?	-17
11	O=C(C[n+]1ccccc1)Nc1ccccc1	-1	6	4	16	4.8	/	/

Laid out differently: two of the compounds above
Every second line gives: BJeLR lethal | Mtb hypoxia inh | Mtb hypoxia inh growth | ugtP null kill | Sa RN4220 lethal | Bead autofluor | PrP 5UTR inh
[25] O=C(Nc1ccc(Cl)cn1)c1ccccc1SCc1ccccc1
  0 | 15 | 11 | 19 | -0.6 | 3444 | -9
[19] CCNC(=O)NC(=O)COC(=O)CCCSc1nc2ccccc2[nH]1
  -4 | -1 | 4 | -2 | 3.3 | 3325 | -8

(next part)
cpd	SMILES	BJeLR lethal	Mtb hypoxia inh	Mtb hypoxia inh growth	ugtP null kill	Sa RN4220 lethal	Bead autofluor	PrP 5UTR inh
31	O=[N+]([O-])c1cccc(/C=C/c2ccccn2)c1	3	2	-1	-3	7.8	3226	-33
32	CC1(C)CSC(=NCc2ccccc2)N1	5	-5	2	19	8.2	3815	-15
33	Nc1nnc(SCc2cccnc2)s1	-3	12	1	14	4.6	7677	-20
34	COc1cc(CC(=O)Nc2ccc3nc(C)sc3c2)cc(OC)c1OC	-4	-2	-8	8	1.5	2667	-17
35	COc1ccc2c(c1)c1ccccc1n2C	-4	7	-3	29	5.6	6689	-32
36	Cc1cccc(N2CCN(S(=O)(=O)c3c(C)noc3/C=C/N(C)C)CC2)c1C	5	3	1	3	3.6	5925	-26
37	C[C@H](CO)N1C[C@H](C)[C@@H](CN(C)C(=O)Nc2ccc(C(F)(F)F)cc2)Oc2c(NC(=O)c3ccncc3)cccc2C1=O	/	5	6	-4	-2.1	3839	0
38	Cc1[nH]c2ccccc2c1CCCNC1CCCCC1	9	/	/	/	/	3896	4
39	COc1cccc(-c2[nH]nc3c2C(c2ccsc2)C(C#N)=C(N)O3)c1 (configuration not stated)	-3	2	13	-9	7.2	22773*	-10
40	O=C(NN=Cc1ccc2c(c1)OCO2)c1ccc(Cl)cc1Cl	/	1	1	4	3.2	/	/
41	Cc1cc(=O)c(C(=O)O)cn1Nc1ccc(Cl)cc1	0	/	/	10	1.4	4675	-17
42	Cc1ccc(S(=O)(=O)N2CC3CC(C2)c2cccc(=O)n2C3)cc1 (configuration not stated)	-5	2	3	7	2.3	9225	-11
43	O=C(Nc1cccc([N+](=O)[O-])c1)c1ccc2c(c1)C(=O)N(c1ccccn1)C2=O	-5	8	2	0	1.3	3043	-15
44	CCCCC1=CC2=CC(=O)C(C)(OC(=O)CC)C(=O)C2=CN1c1ccc(OC)cc1 (configuration not stated)	5	15	3	2	6.3	3721	-26
45	COC1OC(CO)C(O)C(O)C1O (configuration not stated)	4	/	/	4	0.5	5089	-19
46	O=C(Oc1ccc(Cl)c2ccccc12)N1CCCCC1	3	/	/	31	5.2	2844	-19
47	CCc1nnc(NC(=O)CSc2nc(-c3ccccc3)cc(-c3ccc(F)cc3)c2C#N)s1	6	-13	-17	-16	-0.1	5871	-25
48	O=C(NCc1nnc(SCC(=O)N2CCCCCC2)o1)c1ccc(F)cc1	8	-1	11	2	1.1	5687	-16
49	COC(=O)C1=C(O)/C(=C\c2ccc(CNC(=O)C(=O)Nc3ccc(C)cc3)o2)N=C1C	-3	/	/	1	-0.7	2558	-13
50	COc1ccccc1N(C(=O)c1ccco1)C(C(=O)NC1CCCC1)c1cccs1 (configuration not stated)	0	-1	6	8	-2.0	4428	-3
51	Cc1c(O)ccc(C(=O)CN2CCN(c3ccc(F)cc3)CC2)c1O	4	0	-4	6	3.6	5531	-14
52	O=Cc1cc(CCC(=O)O)ccc1O	8	0	12	-5	-0.2	3949	-23
53	CC(/C=C/c1ccco1)=N/NC(=O)Cc1cccs1	-5	/	/	/	/	4724	-6
54	Cc1nc2cc(C(=O)O)ccc2n1-c1ccc(F)cc1F	8	/	/	12	-0.6	2480	5
55	Cc1ccc(SCC(=O)NC2CCS(=O)(=O)C2)cc1C (configuration not stated)	/	2	1	16	8.5	6661	-10
56	CCC(CO)NC(=O)c1ccc(-c2nn(C)c(=O)c3ccccc23)cc1 (configuration not stated)	-2	17	6	-9	4.6	6005	-29
57	CC(C)C[C@H]1CN=C(Nc2ccccc2)N1CCCCc1ccccc1	-12	/	/	/	/	3630	-21
58	O=C(CNS(=O)(=O)c1ccc(F)cc1)Nc1ccccc1	-12	-3	-6	11	6.1	4453	-2
59	CCc1ccc(NC(=O)c2sccc2-n2cccc2)cc1	-6	0	0	35	14	4447	-36
60	COCCNC(=S)NN=C(C)c1ccc(C)c([N+](=O)[O-])c1	/	-3	-2	-2	2.1	/	/
61	CCOc1ccccc1N=Cc1c(O)n(C)c(=O)n(C)c1=O	19	7	1	10	4.6	4297	-16

Compounds were not picked by outcome; 4.1% or so of the library scored in one or more.
